Source: PubChem BioAssay
TRPML1 inh – inhibitors of human TRPML1 channel. activity change, negative = inhibition, % (no concentration beside the values). 390,000 compounds, 0.02% hits. Q9GZU1. AID 624415. TRPML1-inducible cells, Ca2+ dye fluorescence, FDSS; active compounds read low; inhibition of EC80 agonist-evoked calcium signal; in the data active means activity change below about -50%; inconclusive means about -30% to -50%; inactive means above about -30%;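 further: stimulus is agonist 54-4 at its EC80 concentration; on the % scale 0 is the no-effect control and ±100 the full control effect; compound concentration not given in the record; the text of the record puts the active cut at -80%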
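TRPML1-DL cells, Tet-induced overnight (~16 h, 37 °C) at 1,500 cells/well, were loaded with Ca8 no-wash dye plus quencher for 45-90 min at room temperature. Compounds were pinned during FDSS kinetic reading; agonist 54-4 at EC80 (4 uM final) then added.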
gsp agonist – activates gsp, the McCune-Albright syndrome mutation | 340,000 compounds, 0.13% hits | gsp mutant cells, cAMP HTRF, 30 min; control for the full effect not named in the record | Potency, µM (titrated, usually from 76.9 µM), for the others: top-dose activation (cAMP increase), hits mostly activators | AID 624287; active = well fitted activation curve with a large enough effect; inconclusive = small, poorly fitted or top-dose-only effect, or another doubt; inactive = no such curve, though single readings can be large or run the other way; cell line not stated here;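 further: phosphodiesterase inhibitor Ro 20-1724 added with compounds to block cAMP breakdown; potency means the concentration at half of the fitted maximal effect; nearly all actives have a fitted effect of over 60% in size; about a fifth of the inactives were tested at one dose only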
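Cells in DMEM/10% FBS with G418 were pretreated with compounds in DMSO plus […] (300 uM stock) for 30 min at 37C. cAMP was measured by HTRF (cAMP-d2 plus anti-cAMP antibody-K) after 30 min at room temperature.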
gsp antag – antagonists of gsp mutant (McCune-Albright syndrome) | gsp-mutant cells, cAMP HTRF, 30 min; control for the full effect not named in the record | Potency, µM (series often up to 76.9 µM), without a hit: top-dose activity change, negative = inhibition, usual class: inhibitors | 340,000 compounds, 0.4% hits; active = falling curve of any shape with a large fitted effect; inconclusive = falling curve, mostly with a smaller effect; inactive = flat or rising curve; cell line not stated here;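 further: intracellular cAMP measured with PDE inhibitor Ro 20-1724 present during compound exposure; potency means the concentration at half of the fitted maximal effect; on the % scale 0 is the no-effect control and ±100 the full control effect; nearly all actives have a fitted effect of over 65% in size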
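Cells in G418 medium, seeded 16-24 h, 37C; buffer exchange to DPBS + 1 mM CaCl2, 0.5 mM MgCl2, 0.05% BSA; cpds in DMSO + […] (300 uM stock), 30 min 37C; HTRF cAMP detection.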
Menin-MLL FL inh – menin-MLL binding inhibition, fluorescein peptide; Fluorescence polarization, fluorescein-MLL peptide displacement from menin; FP activity change, % at 61.4 µM; 290,000 tested, under 10 active; inconclusive = falling polarisation curve, or a change in total fluorescence; inactive = total fluorescence flat and polarisation flat or rising; no compound was filed as active; the % refers to the polarisation; negative = inhibition;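 further: % of control where 0% means no effect; inhibitors lower the polarisation; unlabelled MLL peptide was the positive control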
TRPV1 potentiator – enhances activation of the human vanilloid receptor TRPV1; AID 540277; TRPV1-expressing cells, Fluo-8 calcium influx, capsaicin EC20 potentiation; host cell line not named in the record; control for the full effect not named in the record; Q8NER1; 320,000 compounds, 0.02% hits; potentiation, % at 8.33 µM; active means potentiation above 80%; inconclusive means 30% to 80%; inactive means below 30%; further: 0% is about no effect
Target sequence (Q8NER1 whole entry, looked up): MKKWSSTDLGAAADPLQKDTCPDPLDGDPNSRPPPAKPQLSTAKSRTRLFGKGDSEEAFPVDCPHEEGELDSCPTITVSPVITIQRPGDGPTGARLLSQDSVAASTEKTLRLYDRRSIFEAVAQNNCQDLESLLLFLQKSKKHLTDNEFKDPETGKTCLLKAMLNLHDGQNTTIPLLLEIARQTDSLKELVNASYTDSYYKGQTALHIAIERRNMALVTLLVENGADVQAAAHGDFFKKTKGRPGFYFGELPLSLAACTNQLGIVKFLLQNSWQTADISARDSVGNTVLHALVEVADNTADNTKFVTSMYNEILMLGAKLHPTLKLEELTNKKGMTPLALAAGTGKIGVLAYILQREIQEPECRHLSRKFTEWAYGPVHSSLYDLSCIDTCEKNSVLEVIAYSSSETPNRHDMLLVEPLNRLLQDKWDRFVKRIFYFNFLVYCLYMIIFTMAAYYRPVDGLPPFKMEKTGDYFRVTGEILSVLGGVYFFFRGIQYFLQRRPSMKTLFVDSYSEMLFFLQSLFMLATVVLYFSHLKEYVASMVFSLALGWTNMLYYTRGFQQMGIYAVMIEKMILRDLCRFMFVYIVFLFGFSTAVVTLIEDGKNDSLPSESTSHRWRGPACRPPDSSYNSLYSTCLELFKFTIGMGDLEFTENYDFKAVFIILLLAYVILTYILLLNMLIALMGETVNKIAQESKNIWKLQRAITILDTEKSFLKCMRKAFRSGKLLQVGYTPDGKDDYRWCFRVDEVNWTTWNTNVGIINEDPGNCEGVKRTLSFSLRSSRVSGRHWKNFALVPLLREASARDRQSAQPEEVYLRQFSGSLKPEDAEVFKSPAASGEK
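Cells expressing TRPV1 were dye-loaded with Fluo-8 and read kinetically: 10 s baseline, 3 min after compound (agonist portion), then 2 min after EC20 capsaicin (allosteric enhancer portion). Calcium-bound dye fluorescence at 480/520 nm.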
Sfp PPTase inh – inhibitors of Bacillus subtilis Sfp phosphopantetheinyl transferase | AID 1490 | Potency, µM, inactives show max response, negative = inhibition, actives largely listed as inhibitors | Q9F4F7 | Biochemical Sfp PPTase activity, qHTS | 310,000 compounds, 3.5% hits; active means well fitted inhibition curve with a large enough effect; inconclusive means small, poorly fitted or top-dose-only effect, or another doubt; inactive means no such curve, though single readings can be large or run the other way;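 further: the enzyme is Sfp with the accession as filed and its product quenches rhodamine fluorescence; potency means the concentration at half of the fitted maximal effect; 0% = enzyme reaction without inhibitor and -100% = no enzyme wells; top concentration of the series not given in the record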
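Reaction rates are the 30-min fluorescence difference (ex 525, em 598 nm) in wells containing 15 nM Sfp, 5 uM rhodamine-CoA and 12.5 uM BHQ-2-YbbR at pH 7.6 with 10 mM MgCl2.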
ClpP mod – qHTS Assay for Activators of ClpP; purified B. subtilis ClpP, FRET peptide cleavage, 20 min; 340,000 compounds, 1.9% hits; Potency, µM (series often up to 57.5 µM), inactives show at the highest dose activity change, negative = active; ATP-dependent Clp protease proteolytic subunit (Bacillus subtilis (strain 168)), P80244; active = well fitted falling curve with a large enough effect; inconclusive = small, poorly fitted or top-dose-only effect; inactive = no such curve, though single readings can be large or run the other way; further: potency means the concentration at half of the fitted maximal effect; the source files actives as falling curves though it sought activators and does not explain the sign; nearly all actives have a fitted effect of over 65% in size; many hits overshoot -100%
Target sequence (P80244 whole entry, looked up): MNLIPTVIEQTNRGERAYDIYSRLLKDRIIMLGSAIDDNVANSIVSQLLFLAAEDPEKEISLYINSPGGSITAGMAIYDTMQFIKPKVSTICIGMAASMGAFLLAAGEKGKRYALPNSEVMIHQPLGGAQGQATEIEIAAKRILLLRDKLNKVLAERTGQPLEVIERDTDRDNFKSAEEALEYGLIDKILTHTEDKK
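Purified B. subtilis ClpP, 10 microg/mL final in Tris/HCl pH8 with KCl, BSA, glycerol and Tween-20, cleaved an Abz/nitrotyrosine-quenched decapeptide. Fluorescence (ex 320, em 430) was read at 0 and 20 min at room temperature. Delta was normalized to 5.8 microM ADEP and DMSO/no-enzyme controls.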
Numbers without * were called inactive; ? = inconclusive; · = not tested or not shown; & = joins results of further samples; [ ] = another dose, or the depositor's remark.

Values run as follows: TRPML1 inh	gsp agonist	gsp antag	Menin-MLL FL inh	TRPV1 potentiator	Sfp PPTase inh	ClpP mod
CCOc1cc(NC(=S)NC)c(OCC)cc1NC(=O)c1cccs1
    ·	-27%	-21%	-0.4	-5	8%	0.1%
N#Cc1cnn2ccn(C3OC(CO)C(O)C3O)c12 (configuration not stated)
    -18	?	-1%	4.3	11	18%	0.4%
Cc1nn(S(=O)(=O)c2ccc(Cl)cc2)c(C)c1Sc1ccc([N+](=O)[O-])cc1
    21	-84%[inhibitor]	-15%	0.5	14	10%	-1.5%
O=C(CN1CCOCC1)NNC(=O)c1ccc(Cl)cc1
    -6	-3%	-6%	·	·	·	0.0%
Cc1cccc(C(=O)OCC(=O)N2c3ccccc3CC2C)c1C (configuration not stated)
    2	-4%	·	·	·	·	-0.8%
CCN(CC)c1ccc2cc(C(N)=O)c(=O)oc2c1
    0	-6%	-4%	?	-8	5%	-12%
O=C1/C(=C\c2ccc(Cl)c(Cl)c2)CN(C(=O)CCN2CCOCC2)C/C1=C/c1ccc(Cl)c(Cl)c1
    22	13%	-4%	·	·	·	0.8%
CCOc1cc2c(cc1O)C(=NOC)CC1C2CCC2(C)C(O)CCC12 (configuration not stated)
    9	?	6%	·	·	·	0.7%
O=C(CSc1nc(-c2ccccc2)ns1)N1CCOCC1
    -3	-20%	11%	3.9	-26	40µM*	0.2%
CC(C)n1cnc2c(Nc3ccc(C(=O)O)cc3)nc(Cl)nc21
    -7	30%	-8%	0.2	?	10%	-2.1%
C=CCSc1nnc(NC(=O)c2c(CC)noc2C)s1
    20	-2%[15.4 µM]	-10%	·	26	·	·
CCc1c(C)nc(N)n2c(SCC(=O)N3CCCc4ccccc43)nnc12
    -11	26%	1%	0.9	25	18%	1.8%
CCOC(=O)C1CCN(Cc2coc3ccc(Cl)cc3c2=O)CC1
    3	-15%	6%	-0.4	-14	5%	-1.4%
Cc1ccc(NC2c3ncccc3C(=O)N2Cc2cccs2)cc1 (configuration not stated)
    63	0%[15.4 µM]	-17%	2.5	-16	-9%	·
CCCN(CC(=O)Nc1ccccc1C)C(=O)c1ccc(-c2ccc([N+](=O)[O-])cc2)o1
    -16	7%	-16%	·	0	·	-1.8%
Cc1cc(SCC(=O)OCC(=O)N2CCCC2=O)c(C)cc1Br
    -16	-15%[15.4 µM]	-2%	·	1	·	0.1%
O=C(NC1CCCCC1)C(c1cccnc1)N(C(=O)c1csnn1)c1ccccc1 (configuration not stated)
    17	-8%	-3%	-0.7	13	8%	·
Cc1ccc(NC(=O)COC(=O)c2ccc3c(c2)NC(=O)C2CCCN32)cc1 (configuration not stated)
    -5	8%	0%	4.4	5	-10%	?
O=C(Nc1cnccn1)Nc1ccc(Cl)cc1Cl
    -6	-17%	2%	-2.6	?	8%	-4.8%
O=C(NCc1ccncc1)C12CC3CC(CC(Cl)(C3)C1)C2
    2	-13%[15.4 µM]	7%	·	-6	-1%	·
COc1ccc(N2CCN(C(=O)CSc3ncnc4c3cnn4-c3ccc(OC)cc3)CC2)cc1
    0	-12%	4%	-7.4	-2	-2%	-1.3%
CC(C)c1ccc(NC(=O)CN2C(=O)NC3(CCCCCCC3)C2=O)cc1
    -2	-44%	12%	·	·	·	1.5%
CCN1CCN(CC(=O)N2N=C(c3cccs3)CC2c2ccc(C)cc2)C(=O)C1=O (configuration not stated)
    11	13%[15.4 µM]	-9%	-0.5	-7	13%	-2.6%
CCN(c1ccc(OC)cc1)S(=O)(=O)N1CCCC(C(=O)NCc2cccc(C)c2)C1 (configuration not stated)
    3	0%	-8%	-1.1	3	13%	-3.5%
Cc1cnc(NC(=O)CSCc2c(C)noc2C)s1
    -1	-3%[15.4 µM]	10%	·	·	·	-0.5%
C(=C(c1ccccc1)c1ccccc1)c1ccccn1
    1	-3%	-4%	·	22	·	1.0%
Nc1nonc1-c1nc2ccccc2n1Cc1ccc(Cl)cc1
    7	-43%[inhibitor]	-21%	-0.6	25	-5%	-5.0%
Cc1c(C)c2ccc(OCC(=O)c3ccccc3)cc2oc1=O
    1	?	35µM*	1.2	-3	-3%	?
COc1ccccc1NS(=O)(=O)c1cc(NC(=O)C2CCCC2)ccc1N1CCOCC1
    -6	10%[15.4 µM]	·	0.4	10	20µM*	·
O=c1c2ccccc2nc(CSc2nnnn2-c2ccccc2)n1-c1cccc(C(F)(F)F)c1
    3	?	3%	-1.9	1	-5%	-0.3%

Next section.
Values run as follows: TRPML1 inh	gsp agonist	gsp antag	Menin-MLL FL inh	TRPV1 potentiator	Sfp PPTase inh	ClpP mod
Cc1ccc2c(c1)N(C(=O)CCC(=O)NCCCN1CCN(C)CC1)CC(C)O2 (configuration not stated)
    13	-39%	8%	-0.3	-2	9%	0.7%
Cc1nn(-c2nc3ccccc3[nH]2)c(N)c1-c1ccccc1
    14	-3%	?	0.4	-3	-10%	1.2%
CCCc1c(C(=O)N/N=C/c2ccccc2C(F)(F)F)nnn1-c1nonc1N
    11	-63%[inhibitor]	-5%	0.4	-6	15%	1.4%
CN(C)C(=O)CN1C(=O)C2CCCCN2C(=O)c2ccccc21 (configuration not stated)
    93	2%	8%	-1.6	10	12%	-3.2%
CCCCCc1cc(OC)cc2c1C(=O)OC(C)(C)O2
    35	·	-21%	·	·	·	-1.4%
CC(=O)Nc1ccc(NC(=O)C(C)OC(=O)C2CCN(S(=O)(=O)c3ccc4c(c3)OCCO4)CC2)cc1 (configuration not stated)
    28	-23%	7%	·	15	·	1.5%
CCOC(=O)c1ccc(N2C(=O)c3n[nH]c(C)c3C2c2ccccc2)cc1 (configuration not stated)
    22	-66%[inhibitor]	-7%	0.1	-5	5%	-2.9%
CC1C(C#N)=C(N)OC2=C1C(=O)CC(C)(C)C2 (configuration not stated)
    9	-62%[inhibitor]	4%	1.0	-15	-8%	-0.6%
COC(=O)c1ccccc1NC(=O)N1c2ccccc2CC1C (configuration not stated)
    3	6%	-17%	-2.1	3	-23%	-11%
Cc1cccc2sc(NC(=O)c3cc(S(=O)(=O)N(C)C)ccc3N3CCCC3)nc12
    -15	-7%[15.4 µM]	-2%	0.5	18	18%	·
CCCCn1c(N)c(N(CCOC)C(=O)c2ccc(N3C(=O)CCC3=O)cc2)c(=O)[nH]c1=O
    -6	-3%	4%	·	-11	·	-0.5%
O=C(CN1CCCC1)Nc1ccc([N+](=O)[O-])cc1Cl
    -14	-8%	3%	-0.5	?	3%	·
COc1ccccc1N1C(=NC(=O)CCC2CCCC2)SC2CS(=O)(=O)CC21 (configuration not stated)
    12	?	-10%	2.7	18	9%	-0.3%
CCOC(=O)N1CCN(C(=O)c2oc3ccc(S(=O)(=O)N4CCCCCC4)cc3c2C)CC1
    7	-1%	-10%	3.4	-13	-1%	-1.3%
Cc1ccccc1-n1c(CSC(=N)N)nc2ccccc2c1=O
    -13	-3%	-3%	2.8	6	-16%	11µM*
CCN(CC)CCCNC(=O)c1cc2c(=O)n(C)c3ccccc3c2n1C
    -10	-46%[inhibitor]	6%	-0.8	8	5%	4.4%
Cc1c(NC(=S)NC(=O)CC(C)C)c(=O)n(-c2ccccc2)n1C
    -10	-31%[inhibitor]	-1%	-3.8	-1	18%	-1.2%
COc1cccc(C(=O)N(C)c2nnc(-c3ccncc3)s2)c1
    -2	2%	-6%	4.9	-11	5%	?
COc1ccc2c(c1)CCC/C2=N\NC(=O)c1ccoc1C
    3	17%	17%	3.7	-12	2%	-1.1%
COc1ccc(/C=C/C2=CC(C)(C)NC(=S)N2)c(OC)c1
    7	-15%[15.4 µM]	-19%	3.6	5	-10%	·
Cc1cc(N2CCCC2=O)cc(C)c1S(=O)(=O)Nc1c(C)nn(C)c1C
    -15	-17%	4%	1.2	3	15%	·
COCCCNC(=O)CN1C(=O)COc2ccc(S(=O)(=O)N3CCOCC3)cc21
    10&-11	-2%	0%	-0.1	-1	10%	2.7%&-0.8%
COc1ccc(C2(C(=O)Nc3ccc(S(N)(=O)=O)cc3)CCCC2)cc1
    41	15%[15.4 µM]	1%	3.2	-14	26%	·
O=C(Nc1ccc(S(=O)(=O)N2CCOCC2)cc1)c1cc(-c2ccccc2O)n[nH]1
    37	0%	-13%	-1.0	-10	11%	0.2%
CSCCC(C(=O)NCc1cccs1)N1C(=O)c2ccccc2C1=O (configuration not stated)
    13	-11%[15.4 µM]	4%	-3.0	-2	5%	0.9%
C/C(=N/NC(=O)CNC(=O)c1ccccn1)c1ccc([N+](=O)[O-])cc1
    1	-23%	-5%	1.1	6	?	·
COc1ccc(-n2nc(C(=O)NCC(=O)NC3CCCCCC3)c3ccccc3c2=O)cc1OC
    -3	9%[15.4 µM]	-2%	·	8	17%	-1.1%
Cn1nc(-c2ccc(Cl)cc2)nc2c(=O)n(C)c(=O)nc1-2
    ·	·	·	?	9	-20%	-6.1%
COC(=O)c1sccc1NC(=O)CC1C(=O)NCCN1C(=O)c1ccc(C)c(C)c1 (configuration not stated)
    -3	10%[15.4 µM]	8%	-0.8	-10	18%	·
CCc1ccc(Oc2cc(Cl)nc(N)n2)cc1
    5	-11%	14%	-0.5	3	1%	-1.2%
